Source: PubChem BioAssay
CSC inhib = cancer stem cell viability inhibitors, primary screen, luminescence. AID 2717, 2010. inhibition, % at 7.5 µM. cancer stem cell-like cells viability. 1.1% of 300,000 active;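 active = mean at 75% or more and at least half the replicates too; inconclusive = mean and replicates disagree; tested in HMLE shEcad cells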;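 note: 0% = median of negative and 100% = median of positive control wells; the first replicate is given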
Rce1 inhib = yeast Rce1p protease inhibitors, primary screen, biochemical, fluorescence, cell-free homogeneous. CAAX prenyl protease 2 (Saccharomyces cerevisiae (strain ATCC 204508 / S288c)), Q03530. yeast membranes, quenched prenylated peptide cleavage fluorescence. calls only. 0.27% of 290,000 active;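 active = fall in fluorescence gain of 50% or more versus controls, with final raw signal at or below 3038400; inconclusive = same 50% fall but final raw signal above 3038400; inactive = fall in fluorescence gain under 50%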;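 note: plate controls were neutral control wells for no effect and wells lacking membranes for full effect; tested at 10 µM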
Target sequence (Q03530 whole entry, looked up): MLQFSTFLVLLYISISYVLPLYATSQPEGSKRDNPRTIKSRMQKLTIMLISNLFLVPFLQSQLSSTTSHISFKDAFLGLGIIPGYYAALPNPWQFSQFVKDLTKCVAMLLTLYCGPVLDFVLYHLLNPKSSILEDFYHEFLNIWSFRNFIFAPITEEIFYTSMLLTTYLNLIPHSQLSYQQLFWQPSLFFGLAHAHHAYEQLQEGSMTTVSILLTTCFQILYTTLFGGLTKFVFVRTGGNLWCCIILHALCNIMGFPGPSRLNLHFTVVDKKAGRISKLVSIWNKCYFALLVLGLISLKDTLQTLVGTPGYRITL
HIV Env fusion = inhibitors of HIV-1 Env-driven cell-cell fusion, primary screen, HeLa-JRFL effector, CEM21 target cells, luciferase. inhibition, % at 12.3 µM. 1.1% of 360,000 active;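 active = mean replicate inhibition score of at least 50 and every replicate individually at or above 50; inconclusive = only one of the two criteria met; inactive = mean below 50 and not all replicates reaching 50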;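 note: 0% = plate neutral controls and 100% = maraviroc near 300 nM; one replicate is shown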
UUG fidelity = modulators of yeast start codon fidelity, primary screen, whole organism, S. cerevisiae, single point, plate reader; S. cerevisiae UUG-firefly luciferase reporter, luminescence/redox ratio; activity score, % at 18.7 µM; 0.13% of 350,000 active; AID 602363, 2012;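 active = replicate mean at a twofold rise or more, about +100% in these data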;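 note: firefly luciferase made from a UUG start codon reports start codon fidelity; reporter light over untreated wells divided by growth signal over untreated wells; some hits fall short of that in this replicate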
PABP polyA inh = PABP poly(A) RNA binding inhibitors, primary screen, biochemical, fluorescence polarization, uHTS | Polyadenylate-binding protein 1 (Homo sapiens), P11940 | inhibition, % at 35 µM | 1% of 290,000 active | AID 2014, 2009;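 active = 50% or more with normal probe brightness, or confirmed in later tests; inconclusive = above 50% with abnormal brightness, or retests that disagree; inactive = below 50% or failed in later tests; about a fifth of its hits are not listed in these tables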;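 note: calls also rest on retests at 20 µM and on dose response follow-up; controls were probe without protein and protein plus probe with vehicle; some compounds called inactive have numbers as strong as hits; many hits fall short of the cut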
Target sequence (P11940 whole entry, looked up): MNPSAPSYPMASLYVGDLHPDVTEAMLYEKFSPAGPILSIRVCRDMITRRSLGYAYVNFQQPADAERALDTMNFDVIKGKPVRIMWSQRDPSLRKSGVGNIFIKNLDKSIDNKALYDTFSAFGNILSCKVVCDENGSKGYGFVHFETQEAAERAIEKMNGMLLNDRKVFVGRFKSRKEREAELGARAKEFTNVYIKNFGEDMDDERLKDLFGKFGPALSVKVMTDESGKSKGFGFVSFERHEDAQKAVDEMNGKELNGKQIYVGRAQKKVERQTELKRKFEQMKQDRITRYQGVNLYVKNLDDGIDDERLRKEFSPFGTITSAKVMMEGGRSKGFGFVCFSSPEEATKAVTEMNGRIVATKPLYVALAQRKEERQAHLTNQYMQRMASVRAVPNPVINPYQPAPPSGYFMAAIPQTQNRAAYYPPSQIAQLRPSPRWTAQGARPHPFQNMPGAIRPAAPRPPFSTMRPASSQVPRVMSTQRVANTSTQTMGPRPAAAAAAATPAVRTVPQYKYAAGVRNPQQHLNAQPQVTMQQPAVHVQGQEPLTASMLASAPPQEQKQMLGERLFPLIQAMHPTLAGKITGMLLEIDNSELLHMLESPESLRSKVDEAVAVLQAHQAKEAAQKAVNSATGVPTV
eIF4H FP inh = human eIF4H binding inhibitors, primary screen, translation initiation inhibitor project, biochemical, uHTS, fluorescence polarization; inhibition, % at 35 µM; 0.94% of 290,000 active; eIF4H fluorescence polarization binding assay; Eukaryotic translation initiation factor 4H (Homo sapiens), Q15056;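 active = 50% or more with normal probe brightness, or confirmed in later tests; inconclusive = above 50% with abnormal brightness, or retests that disagree; inactive = below 50% or failed in later tests; about a fifth of its hits are not listed in these tables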;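 note: calls also rest on retests at 20 µM and on dose response follow-up; 0% = protein and probe with vehicle and 100% = probe without protein; strong numbers were not always called active; many hits fall short of the cut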
MT1-MMP act inh = blockers of MT1-MMP proenzyme processing, primary screen, HT1080 RFP-PRO-GFP cells, GFP/RFP fluorescence. GFP/RFP ratio fluorescence, overnight; percent of plate control window, DMSO zero. GFP/RFP ratio change, % at 20 µM. 0.061% of 360,000 active. AID 651647, 2012;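 active = GFP/RFP ratio change of at least 30% with cell ATP level not reduced by more than half and red fluorescence within 50% of control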; note: strong numbers were not always called active
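Assay system: RFP-PRO-GFP reporter HT1080 cells; read-out basis: GFP/RFP fluorescence ratio; benchmarks: DMSO wells and RFP-L50D-GFP cells; doses: 20 µM single dose, 1% DMSO; schedule: overnight cell settling, then overnight compound exposure, 37 °C, 5% CO2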
MT1-MMP act inh RFP = further read-out of MT1-MMP act inh, marked with its call; RFP signal change, %; measured here: RFP expression control read;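 0 = vehicle wells; hits needed this value within 50% of zero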
* = called active by the depositor; i = inactive; ? = inconclusive; nt = not tested or not shown.

Values in the order: Rce1 inhib	CSC inhib	UUG fidelity	eIF4H FP inh	MT1-MMP act inh	PABP polyA inh	HIV Env fusion	MT1-MMP act inh RFP
- C#CCOCCOCCOCCNc1nc(N2CCN(C(=O)[C@H](CCC(=O)O)n3cc(C(N)CO)nn3)CC2)nc(N2CCN(C(=O)[C@H](CCC(=O)O)n3cc(C(N)[C@H](C)CC)nn3)CC2)n1 (stereo not given in full)
    i	-11	6	10	-3	11	nt	2
- CC1CCCCN1C(=O)C1CCN(S(=O)(=O)c2ccc(-n3cnnn3)cc2)CC1 (stereo not given)
    i	nt	-5	-3	1	-1	2	-8
- C/C(=N\NC(=O)c1cc(-c2cccnc2)nc2ccccc12)c1ccccc1O
    i	nt	-20	4	0	3	nt	-2
- COc1ccc(CNCc2ccccc2C(F)(F)F)cc1
    i	4	-6	-26	1	6	9	-2
- O=C(NCc1ccco1)c1ccc(N2CCOCC2)c([N+](=O)[O-])c1
    nt	-6	nt	-3	0	5	8	-5
- COc1ccc2c(c1)[C@H]1[C@H](CO2)[C@H](c2ccccc2)[C@]2(C)C(=O)N(CC3CCCO3)CC(=O)N12 (stereo not given in full)
    nt	1	-8	nt	4	nt	52	1
- CCOCN(C(=O)Cn1c(COC)nc2ccccc21)c1c(C)cccc1CC
    i	-4	-5	-5	1	6	-76	-1
- Cc1ccc2c(NC(=O)C3CC3)c(C)ccc2n1
    i	nt	nt	5	nt	10	nt	nt
- Cc1cc(NS(=O)(=O)c2ccc(OCCNS(C)(=O)=O)cc2)no1
    i	-7	-11	3	-1	10	nt	3
- CC1=C/C(=N\OC(=O)/C=C/c2ccccc2)C(C)=CC1=O
    i	10	-11	4	2	-9	-136	3

Remaining list, next part:
Values in the order: Rce1 inhib	CSC inhib	UUG fidelity	eIF4H FP inh	MT1-MMP act inh	PABP polyA inh	HIV Env fusion	MT1-MMP act inh RFP
- CCOC(=O)N1CCN(Cc2cn[nH]c2-c2cccc3ccccc23)CC1
    i	-8	nt	3	-4	-1	-19	1
- CC1CCC(C(C)C)C(OP(=O)(c2ccc(N(C)C)cc2)C(O)c2cccnc2)C1 (stereo not given)
    i	14	nt	2	nt	6	nt	nt
- COC(=O)c1ccc(COc2cccc3c2CCN(Cc2ccccc2)C3=O)o1
    i	0	nt	-6	-6	-12	nt	-13
- CC(C)Cn1c(N)c(C(=O)NCc2cccs2)c2nc3ccccc3nc21
    i	116*	10	-6	-17	6	-12	-6
- CC(=O)N1CCN(C(=S)Nc2ccc(Oc3ccccc3)cc2)CC1
    i	-7	-9	3	-2	8	17	-6
- CC(C)(C)c1cc(NC(=O)COC(=O)c2ccc3c(=O)n4c(nc3c2)CCC4)n(-c2ccccc2)n1
    i	5	-6	-11	0	-6	nt	-4
- O=C(CN(c1ccc(F)cc1)S(=O)(=O)c1ccccc1)NCCSC1CCCCC1
    i	7	-10	-3	2	5	nt	-3
- Cc1nn(CCOc2ccccc2)c(=O)n1-c1ccccc1
    i	15	-22	0	5	-1	-23	4
- O=C(NC1CCCCCC1)c1cc(S(=O)(=O)N2CCOCC2)ccc1N1CCCCC1
    i	-12	14	4	-4	-6	-5	-9
- CCCN(CC(=O)Nc1ccccc1OC)C(=O)c1cccc(S(=O)(=O)NCc2ccccc2)c1
    i	-7	nt	nt	3	nt	90*	4

Compounds shown so far containing sulfur, in the order listed:
Values in the order: Rce1 inhib	CSC inhib	UUG fidelity	eIF4H FP inh	MT1-MMP act inh	PABP polyA inh	HIV Env fusion	MT1-MMP act inh RFP
- CC1CCCCN1C(=O)C1CCN(S(=O)(=O)c2ccc(-n3cnnn3)cc2)CC1 (stereo not given)
    i	nt	-5	-3	1	-1	2	-8
- Cc1cc(NS(=O)(=O)c2ccc(OCCNS(C)(=O)=O)cc2)no1
    i	-7	-11	3	-1	10	nt	3
- CC(C)Cn1c(N)c(C(=O)NCc2cccs2)c2nc3ccccc3nc21
    i	116*	10	-6	-17	6	-12	-6
- CC(=O)N1CCN(C(=S)Nc2ccc(Oc3ccccc3)cc2)CC1
    i	-7	-9	3	-2	8	17	-6
- O=C(CN(c1ccc(F)cc1)S(=O)(=O)c1ccccc1)NCCSC1CCCCC1
    i	7	-10	-3	2	5	nt	-3
- O=C(NC1CCCCCC1)c1cc(S(=O)(=O)N2CCOCC2)ccc1N1CCCCC1
    i	-12	14	4	-4	-6	-5	-9
- CCCN(CC(=O)Nc1ccccc1OC)C(=O)c1cccc(S(=O)(=O)NCc2ccccc2)c1
    i	-7	nt	nt	3	nt	90*	4

Next part.
Values in the order: Rce1 inhib	CSC inhib	UUG fidelity	eIF4H FP inh	MT1-MMP act inh	PABP polyA inh	HIV Env fusion	MT1-MMP act inh RFP
- CN(C)N=Nc1ccc2nc[nH]c2c1
    i	-9	nt	-1	6	-2	-2	4
- CC1=C(C(=O)N2CCCC(N3CCN(c4cccc(C(F)(F)F)c4)CC3)C2)OCCO1 (stereo not given)
    i	-6	-3	-2	2	-19	21	-2
- N#CC1(C#N)C(c2ccccc2)OC23CCCCCC2C1(C#N)C(=N)O3 (stereo not given)
    i	-18	-8	43	-15	12	-6	3
- CC(=O)Nc1cccc(Oc2ccc3c(c2)C(=O)NC3=O)c1
    i	-6	-17	-5	0	3	-72	5
- O=C(COC(=O)c1cc(S(=O)(=O)N2CCOCC2)ccc1Cl)Nc1ccccc1Cl
    nt	nt	0	nt	4	nt	2	6
- COc1ccccc1CCN=C(N)NS(=O)(=O)c1ccc(F)cc1
    i	1	-13	-17	2	-3	17	-5
- CC(C)[C@H](NS(=O)(=O)c1ccccc1)C(=O)Nc1ccccc1N1CCOCC1
    nt	-10	15	nt	0	nt	nt	1
- O=C(O)c1cc2ccccc2n1-c1ccccc1
    i	-8	-10	-4	-21	12	-85	-3
- CCOc1ccc(/C=C/[N+](=O)[O-])c2ccccc12
    i	61	-26	-2	3	0	nt	3
- FC(F)(F)c1cc(-c2ccccc2)nc(-n2cncn2)n1
    i	1	-6	-7	2	2	nt	0

The list continues.
Values in the order: Rce1 inhib	CSC inhib	UUG fidelity	eIF4H FP inh	MT1-MMP act inh	PABP polyA inh	HIV Env fusion	MT1-MMP act inh RFP
- COCCNCC(=O)Nc1ccc(C)c(S(=O)(=O)N2CCCCC2)c1
    i	5	6	-11	4	4	-9	1
- Cc1ccccc1N(CC(=O)NCc1ccncc1)S(C)(=O)=O
    i	-5	-20	-2	-1	3	nt	5
- CCN(CC)CCOCCOc1ccccc1F
    i	-10	-13	4	3	38	nt	3
- Nc1nnnn1NCc1cccc(OCc2ccccc2)c1
    i	-10	-19	3	-2	4	12	-9
- COCC1CCN(Cc2c(C(=O)N3CCc4ccccc4C3)nc3ccc(Cl)cn23)C1 (stereo not given)
    i	-12	-16	?	-15	?	-2	3
- C=CCn1c(SCC(=O)NCc2ccco2)nc2ccccc2c1=O
    nt	-5	nt	-12	-2	?	-4	2
- O=C(COC(=O)CCC(=O)c1ccc2c(c1)OCCO2)NCc1ccc2c(c1)OCO2
    i	-3	6	-7	0	-2	-61	5
- COc1cc2c(cc1OC)C(C)N(C(=O)C(NC(=O)c1ccccc1)C(C)C)CC2 (stereo not given)
    i	-3	-14	1	3	5	13	-2
- Cc1cc(NC(=O)CC2CCCC2)ccc1Br
    i	-7	3	-1	-1	1	-7	-2
- CC(C)(C)c1ccc(NC(=O)CSc2n[nH]c(=O)n2C2CC2)cc1
    nt	-4	-9	nt	15	nt	nt	-5

Following part.
Values in the order: Rce1 inhib	CSC inhib	UUG fidelity	eIF4H FP inh	MT1-MMP act inh	PABP polyA inh	HIV Env fusion	MT1-MMP act inh RFP
- COc1cc(-n2c(=O)c3ccccc3n(CC(=O)OCc3ccccc3)c2=O)cc(OC)c1OC
    i	-4	-6	0	5	9	-5	2
- Cc1ccc2sc(N(CCN(C)C)C(=O)c3ccc4ccccc4c3)nc2c1C
    i	-21	-25	4	-3	8	23	2
- COc1ccc(-c2cc(C(=O)Nc3c(F)cc(F)cc3Br)no2)cc1
    i	0	-6	0	-1	-7	-18	-1
- CCOC(=O)C(=N/O)/C(C)=N/NC(C)=O
    i	nt	-9	-1	-7	-6	13	4
- COc1ccc(N(C(=O)c2snc(C(N)=O)c2N)C(C(=O)NC2CCCC2)c2ccco2)c(OC)c1 (stereo not given)
    i	nt	-13	-13	0	2	13	-1
- O=C(/C(=N/O)n1cncn1)c1ccccc1Cl
    i	-5	2	-12	0	-8	9	2
- O=C(COC(=O)Cc1ccc(Cl)cc1Cl)NCc1ccccc1
    nt	nt	-16	nt	-2	nt	-1	4
- CCCCOc1ccc(C)cc1CN(CCO)CCO
    i	-15	6	-2	26	6	nt	-1
- CNS(=O)(=O)c1cc(OCC(N)=O)c(C)cc1Cl
    i	-5	-21	12	7	10	-3	6
- C=CCn1c(SCC(=O)Nc2ccccc2CC)nnc1-c1ccncc1
    i	nt	nt	2	-3	-7	nt	4

Remaining list, next part
Values in the order: Rce1 inhib	CSC inhib	UUG fidelity	eIF4H FP inh	MT1-MMP act inh	PABP polyA inh	HIV Env fusion	MT1-MMP act inh RFP
- CC(C)Cn1c(=S)[nH]c2ccccc2c1=O
    i	-5	nt	-13	-7	-12	-4	0
- O=C(CN1C(=O)c2ccccc2C1=O)N1CCN(c2ccccn2)CC1
    i	-4	-6	-5	0	-18	10	0
- Cc1ccc2nc(NC(=O)C3CC3C)sc2c1 (stereo not given)
    i	-1	-9	-12	-4	1	-66	-16
- N#CC(c1ccc(=O)[nH]n1)c1ccc(Cl)cc1Cl (stereo not given)
    i	-3	nt	-2	2	-2	-1	1
- Cc1c(N=NC2=C(O)CC(C)(C)CC2=O)cc2c(c1[N+](=O)[O-])C(C)(C)CC2(C)C
    i	11	1	-7	15	-12	5	-8
- Cc1c(NC(=S)N/N=C/c2ccc(N(C)C)cc2)c(=O)n(-c2ccccc2)n1C
    i	nt	nt	-2	-4	-6	-14	2
- CC(C)(C)c1cc(C(=O)O)n[nH]1
    i	-10	-17	-2	2	-2	nt	3
- COC(=O)c1c[nH]n2c(=O)c(C(C)C)c(C)nc12
    i	4	-8	13	-3	-7	6	-3
- Cc1ccc(-c2cc(-c3ccc(C)cc3O)[nH]n2)cc1
    i	-2	-24	-5	-2	2	-193	-3
- CCCc1cc(=O)[nH]c(SCc2cc(=O)oc3cc(C)c(C(C)C)cc23)n1
    i	nt	nt	2	0	11	-16	1
- Cc1ccc2[nH]c(=O)c(CN(CCCN(C)C)C(=O)Nc3ccc(F)cc3)cc2c1
    i	nt	nt	-8	-4	-2	18	0
- N#C/C(C(N)=O)=c1/ccc2c(c1)N1C3=C(CCCC3)CC3CCCCC31N=2 (stereo not given)
    i	44	1	2	nt	-1	nt	nt
